Assay outcomes deposited in PubChem by Broad Institute.
MLL AF4-AF9 inh = inhibitors of human MLL-AF4/AF9 interaction | P42568 | AlphaScreen, biotin-AF4 peptide binding to FLAG-AF9 | inhibition, % at 10 µM | hit rate 0.47% among 350,000 | AID 651704;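 active means every replicate reaching a set inhibition limit, whatever the replicate mean, cut at about 25% in these data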;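 further: 0% = plate neutral control median and 100% = total signal loss; the record names both 10 and 1 µM as test concentration; the first replicate is given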
Target sequence (P42568 whole entry, looked up): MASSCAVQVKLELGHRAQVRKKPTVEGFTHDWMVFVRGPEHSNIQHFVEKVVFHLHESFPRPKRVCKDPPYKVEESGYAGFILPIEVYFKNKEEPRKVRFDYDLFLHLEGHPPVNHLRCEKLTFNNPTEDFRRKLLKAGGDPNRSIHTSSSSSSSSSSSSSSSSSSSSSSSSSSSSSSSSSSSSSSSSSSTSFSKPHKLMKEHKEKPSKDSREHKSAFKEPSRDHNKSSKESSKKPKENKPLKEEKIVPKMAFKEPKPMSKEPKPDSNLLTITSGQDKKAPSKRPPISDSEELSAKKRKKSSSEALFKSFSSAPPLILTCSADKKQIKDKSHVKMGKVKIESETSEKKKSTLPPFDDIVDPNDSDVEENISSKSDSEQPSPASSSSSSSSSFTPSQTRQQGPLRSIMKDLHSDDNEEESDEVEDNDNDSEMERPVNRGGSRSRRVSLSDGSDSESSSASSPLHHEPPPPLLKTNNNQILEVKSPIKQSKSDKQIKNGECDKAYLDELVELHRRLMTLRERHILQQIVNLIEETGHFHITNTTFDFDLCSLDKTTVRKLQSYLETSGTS
FGF22 binding = shifts melting point of recombinant human FGF22. Q9HCT0. recombinant FGF22 thermal shift, SYPRO orange fluorescence; percent of sucrose octasulfate shift, DMSO zero. calls only at 9.99 µM. hit rate 1.5% among 340,000;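 active means melting point raised past a set limit in the mean and every replicate; three in four hits are not shown here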
Target sequence (Q9HCT0 whole entry, looked up): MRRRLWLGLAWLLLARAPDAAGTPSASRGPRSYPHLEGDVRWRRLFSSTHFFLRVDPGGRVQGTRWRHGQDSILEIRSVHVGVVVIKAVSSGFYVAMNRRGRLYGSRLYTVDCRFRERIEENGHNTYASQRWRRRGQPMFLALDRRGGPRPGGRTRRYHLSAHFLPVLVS
Ecoli rRNA inh = inhibitors of bacterial rRNA selective over humanized ribosomes. E. coli WT GFP vs humanized-ribosome RFP mutants, fluorescence, 24 h; stronger effect = lower value; DMSO median 0, no signal -100. GFP signal change (wild-type ribosome), % (concentration not given with the values). hit rate 1.6% among 350,000. AID 720706;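 active means significant combined selectivity score with lowered wild-type GFP, culture density cut under 30%, mutant RFP and density less affected; inactive means any of these conditions unmet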; further: one replicate is shown; some compounds called inactive have numbers as strong as hits
Ecoli rRNA inh OD600 = second read-out of Ecoli rRNA inh, no call of its own (marks repeat the call); OD600 change, %; measured here: OD600 growth;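 optical density of the mix in the first replicate; 0 = DMSO median and -100 = no signal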
Ecoli rRNA inh RFP = also measured in Ecoli rRNA inh; calls as there; RFP signal change, %; measured here: RFP humanized mutant strains;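 first replicate; 0 = DMSO median and -100 = no signal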
* hit, by the source's call.

What do the screens show for `CC(C)NC(=O)Nc1cccc2c1O[C@@H](CN(C)C(=O)Nc1ccc(F)cc1)[C@@H](C)CN([C@@H](C)CO)C2=O`?
MLL AF4-AF9 inh: 0.1; FGF22 binding: inactive; Ecoli rRNA inh: 1.1; Ecoli rRNA inh OD600: 6.6; Ecoli rRNA inh RFP: 1.6

What do the screens show for `CC(C)C#Cc1ccc2c(c1)O[C@H](CN(C)C(=O)c1cccnc1)[C@H](C)CN([C@H](C)CO)S2(=O)=O`?
MLL AF4-AF9 inh: 3.0; FGF22 binding: inactive; Ecoli rRNA inh: 4.6; Ecoli rRNA inh OD600: -5.0; Ecoli rRNA inh RFP: -2.0

How did C[C@H]1CCCCO[C@H](CN(C)C(=O)CCC(F)(F)F)[C@@H](C)CN([C@@H](C)CO)C(=O)c2cc(NS(=O)(=O)c3cn(C)cn3)ccc2O1 do in these assays?
MLL AF4-AF9 inh: 0.3; FGF22 binding: inactive; Ecoli rRNA inh: 0.9; Ecoli rRNA inh OD600: -1.1; Ecoli rRNA inh RFP: 0.6

How did C[C@H](CO)N1C[C@H](C)[C@H](CN(C)S(C)(=O)=O)Oc2ccc(NC(=O)Nc3ccc(C(F)(F)F)cc3)cc2C1=O do in these assays?
MLL AF4-AF9 inh: -0.4; FGF22 binding: inactive; Ecoli rRNA inh: 4.3; Ecoli rRNA inh OD600: -2.7; Ecoli rRNA inh RFP: 0.3

What do the screens show for `CCOC(=O)C1CSCCS(=O)(=O)N1Cc1ccccc1F` (centres undefined)?
MLL AF4-AF9 inh: -1.2; FGF22 binding: inactive; Ecoli rRNA inh: 2.3; Ecoli rRNA inh OD600: 2.5; Ecoli rRNA inh RFP: 4.3

What do the screens show for `C[C@@H]1CN([C@H](C)CO)C(=O)c2cc(NS(=O)(=O)c3cn(C)cn3)ccc2O[C@@H]1CN(C)S(=O)(=O)c1cccs1`?
MLL AF4-AF9 inh: -0.9; FGF22 binding: inactive; Ecoli rRNA inh: 1.7; Ecoli rRNA inh OD600: -0.3; Ecoli rRNA inh RFP: 2.1

What do the screens show for `C[C@H]1CN([C@@H](C)CO)C(=O)c2cc(NC(=O)Cc3cn(C)c4ccccc34)ccc2O[C@@H]1CN(C)Cc1ccccc1`?
MLL AF4-AF9 inh: 6.7; FGF22 binding: inactive; Ecoli rRNA inh: -0.4; Ecoli rRNA inh OD600: 0.6; Ecoli rRNA inh RFP: 4.4

How did C[C@H]1CN([C@@H](C)CO)C(=O)c2cc(C#Cc3ccccc3)cnc2O[C@@H]1CN(C)C(=O)C1CC1 do in these assays?
MLL AF4-AF9 inh: -6.8; FGF22 binding: inactive; Ecoli rRNA inh: -7.2; Ecoli rRNA inh OD600: -7.3; Ecoli rRNA inh RFP: 2.0

Results for COCc1cn(CC[C@@H]2CC[C@@H](NC(=O)Nc3ccc(OC)cc3)[C@H](CO)O2)nn1 ?
MLL AF4-AF9 inh: -1.3; FGF22 binding: inactive; Ecoli rRNA inh: -3.5; Ecoli rRNA inh OD600: 4.8; Ecoli rRNA inh RFP: -3.9

Results for COc1ccc2c3c(n(C)c2c1)[C@H](CO)N(Cc1ccncc1)CC31CCN(C(=O)Cc2ccncc2)CC1 ?
MLL AF4-AF9 inh: -9.5; FGF22 binding: inactive; Ecoli rRNA inh: 2.2; Ecoli rRNA inh OD600: 2.9; Ecoli rRNA inh RFP: -3.6

Results for CCOC(=O)C1=C(C)N=c2sc(=Cc3cc(Cl)c(OCC(=O)O)c(OC)c3)c(=O)n2C1c1ccccc1Cl (centres undefined) ?
MLL AF4-AF9 inh: 18.3; FGF22 binding: inactive; Ecoli rRNA inh: 8.1; Ecoli rRNA inh OD600: 12.6; Ecoli rRNA inh RFP: 0.9

How did O=C1NC(Cc2ccc(O)cc2)c2nc3cc(F)ccc3c(=O)n2-c2ncccc21 (centres undefined) do in these assays?
MLL AF4-AF9 inh: -1.6; FGF22 binding: inactive; Ecoli rRNA inh: 6.0; Ecoli rRNA inh OD600: 3.7; Ecoli rRNA inh RFP: -2.0

How did CCCCc1c(-c2cccc(F)c2)ncn1CCc1ccccc1OC do in these assays?
MLL AF4-AF9 inh: 4.7; FGF22 binding: inactive; Ecoli rRNA inh: -49.9; Ecoli rRNA inh OD600: -67.7; Ecoli rRNA inh RFP: -0.7

What do the screens show for `O=C(Cc1ccccn1)N[C@@H]1CC[C@@H](CCNC(=O)c2cc(Cl)cc(Cl)c2)O[C@H]1CO`?
MLL AF4-AF9 inh: -1.9; FGF22 binding: inactive; Ecoli rRNA inh: -4.1; Ecoli rRNA inh OD600: -4.9; Ecoli rRNA inh RFP: 0.9

How did C[C@@H]1CN([C@H](C)CO)C(=O)Cc2cc(NC(=O)C3CC3)ccc2O[C@@H]1CN(C)Cc1ccc(C(F)(F)F)cc1 do in these assays?
MLL AF4-AF9 inh: 0.4; FGF22 binding: inactive; Ecoli rRNA inh: -0.6; Ecoli rRNA inh OD600: -32.6; Ecoli rRNA inh RFP: -0.1

Results for CCCNC(=O)C[C@@H]1C[C@@H]2c3cc(NC(=O)NC4CCCCC4)ccc3O[C@@H]2[C@H](CO)O1 ?
MLL AF4-AF9 inh: 1.2; FGF22 binding: inactive; Ecoli rRNA inh: 5.3; Ecoli rRNA inh OD600: 3.7; Ecoli rRNA inh RFP: -2.2

How did COCCNC(=O)c1cccc2c(-c3ccnn3C)coc12 do in these assays?
MLL AF4-AF9 inh: 2.4; FGF22 binding: inactive; Ecoli rRNA inh: 1.2; Ecoli rRNA inh OD600: -5.0; Ecoli rRNA inh RFP: -1.1

What do the screens show for `COCC#Cc1cnc2c(c1)C(=O)N([C@@H](C)CO)C[C@@H](C)[C@@H](CN(C)C(=O)C1CCOCC1)O2`?
MLL AF4-AF9 inh: -3.4; FGF22 binding: inactive; Ecoli rRNA inh: 0.3; Ecoli rRNA inh OD600: 7.8; Ecoli rRNA inh RFP: 0.6

Results for COc1cccc(C(=O)Nc2ccc3c(c2)C(=O)N(C)C[C@@H](OC)[C@@H](C)CN[C@H](C)CO3)c1 ?
MLL AF4-AF9 inh: -1.1; FGF22 binding: inactive; Ecoli rRNA inh: -0.4; Ecoli rRNA inh OD600: 11.4; Ecoli rRNA inh RFP: -0.8

What do the screens show for `COCc1cn(CC[C@H]2CC[C@H](NC(=O)Nc3ccc(F)cc3)[C@H](CO)O2)nn1`?
MLL AF4-AF9 inh: -0.4; FGF22 binding: inactive; Ecoli rRNA inh: 2.3; Ecoli rRNA inh OD600: 10.5; Ecoli rRNA inh RFP: -0.1

Three compounds picked at random from the list so far, as already listed:
What do the screens show for `COCc1cn(CC[C@H]2CC[C@H](NC(=O)Nc3ccc(F)cc3)[C@H](CO)O2)nn1`?
MLL AF4-AF9 inh: -0.4; FGF22 binding: inactive; Ecoli rRNA inh: 2.3; Ecoli rRNA inh OD600: 10.5; Ecoli rRNA inh RFP: -0.1

How did CCCCc1c(-c2cccc(F)c2)ncn1CCc1ccccc1OC do in these assays?
MLL AF4-AF9 inh: 4.7; FGF22 binding: inactive; Ecoli rRNA inh: -49.9; Ecoli rRNA inh OD600: -67.7; Ecoli rRNA inh RFP: -0.7

How did C[C@@H]1CN([C@H](C)CO)C(=O)Cc2cc(NC(=O)C3CC3)ccc2O[C@@H]1CN(C)Cc1ccc(C(F)(F)F)cc1 do in these assays?
MLL AF4-AF9 inh: 0.4; FGF22 binding: inactive; Ecoli rRNA inh: -0.6; Ecoli rRNA inh OD600: -32.6; Ecoli rRNA inh RFP: -0.1

Following part.
Results for C[C@@H](NC(=O)C[C@H]1CC[C@@H](NC(=O)Nc2ccc3c(c2)OCO3)[C@H](CO)O1)c1ccccc1 ?
MLL AF4-AF9 inh: -1.4; FGF22 binding: inactive; Ecoli rRNA inh: -5.4; Ecoli rRNA inh OD600: 2.2; Ecoli rRNA inh RFP: -0.5

Results for COc1ccc2nc3cc(Cl)ccc3c(Nc3ccc(O)c(CN4CCN(C)CC4)c3)c2c1 ?
MLL AF4-AF9 inh: 58.6*; FGF22 binding: inactive; Ecoli rRNA inh: -48.5; Ecoli rRNA inh OD600: -59.6; Ecoli rRNA inh RFP: -3.1

How did C[C@@H]1CN([C@H](C)CO)C(=O)Cc2cc(NC(=O)CCCN(C)C)ccc2O[C@H]1CN(C)S(=O)(=O)c1ccc(F)cc1 do in these assays?
MLL AF4-AF9 inh: -3.9; FGF22 binding: inactive; Ecoli rRNA inh: -3.3; Ecoli rRNA inh OD600: -1.3; Ecoli rRNA inh RFP: 1.1

How did C[C@@H]1CCCCO[C@H](CN(C)C(=O)Nc2ccc(F)cc2)[C@H](C)CN([C@@H](C)CO)C(=O)c2cc(NS(=O)(=O)c3cccs3)ccc2O1 do in these assays?
MLL AF4-AF9 inh: -10.9; FGF22 binding: inactive; Ecoli rRNA inh: 3.9; Ecoli rRNA inh OD600: -3.1; Ecoli rRNA inh RFP: -1.8

How did CCOCCC(=O)Nc1ccc2c(c1)c(=O)n(C)n2Cc1cccc(C(F)(F)F)c1 do in these assays?
MLL AF4-AF9 inh: -0.9; FGF22 binding: inactive; Ecoli rRNA inh: 3.8; Ecoli rRNA inh OD600: 11.3; Ecoli rRNA inh RFP: 3.6

How did C[C@H](CO)N1C[C@H](C)[C@@H](CN(C)Cc2ccccc2C(=O)O)Oc2ncc(C#CC3CC3)cc2C1=O do in these assays?
MLL AF4-AF9 inh: 3.1; FGF22 binding: inactive; Ecoli rRNA inh: -3.3; Ecoli rRNA inh OD600: -4.7; Ecoli rRNA inh RFP: 0.6

Results for CC(C)N1CCC(C)(C(=O)Nc2ccccc2Oc2ccccc2)C1 (centres undefined) ?
MLL AF4-AF9 inh: 0.0; FGF22 binding: inactive; Ecoli rRNA inh: 5.0; Ecoli rRNA inh OD600: 21.5; Ecoli rRNA inh RFP: -0.2

Results for C[C@@H]1CN([C@H](C)CO)S(=O)(=O)c2ccc(C3=CCCCC3)cc2O[C@H]1CN(C)Cc1cccc(C(=O)O)c1 ?
MLL AF4-AF9 inh: 0.7; FGF22 binding: inactive; Ecoli rRNA inh: -5.4; Ecoli rRNA inh OD600: -11.8; Ecoli rRNA inh RFP: -1.3

What do the screens show for `C[C@@H]1CN([C@H](C)CO)C(=O)c2cc(NS(=O)(=O)c3ccccc3)ccc2O[C@@H](C)CCCCO[C@@H]1CN(C)S(C)(=O)=O`?
MLL AF4-AF9 inh: -1.2; FGF22 binding: inactive; Ecoli rRNA inh: -1.4; Ecoli rRNA inh OD600: 4.4; Ecoli rRNA inh RFP: -0.9

Results for C[C@@H]1CN([C@@H](C)CO)C(=O)c2cc(C#Cc3ccccc3)cnc2O[C@@H]1CN(C)C(=O)C1CC1 ?
MLL AF4-AF9 inh: -9.1; FGF22 binding: inactive; Ecoli rRNA inh: -4.5; Ecoli rRNA inh OD600: -7.9; Ecoli rRNA inh RFP: -0.3

Results for COCCN(C[C@@H]1[C@@H](c2ccccc2)[C@@H](CO)N1C(C)=O)C(=O)c1cccnc1 ?
MLL AF4-AF9 inh: 0.3; FGF22 binding: inactive; Ecoli rRNA inh: -2.0; Ecoli rRNA inh OD600: 6.2; Ecoli rRNA inh RFP: -0.9

What do the screens show for `CC[C@@H](NC(=O)Cn1cc(C)c(=O)[nH]c1=O)c1ccccc1`?
MLL AF4-AF9 inh: -2.0; FGF22 binding: inactive; Ecoli rRNA inh: 4.3; Ecoli rRNA inh OD600: 11.2; Ecoli rRNA inh RFP: 12.5

How did C[C@H]1[C@H](c2ccccc2)Oc2cccc(NCCc3ccccc3)c2S(=O)(=O)N1Cc1cccc(F)c1 do in these assays?
MLL AF4-AF9 inh: -0.8; FGF22 binding: inactive; Ecoli rRNA inh: 9.4; Ecoli rRNA inh OD600: 15.8; Ecoli rRNA inh RFP: 10.8

How did Cc1ccc(S(=O)(=O)NCC[C@H]2CC[C@H](NC(=O)c3cccnc3)[C@@H](CO)O2)cc1 do in these assays?
MLL AF4-AF9 inh: -2.0; FGF22 binding: inactive; Ecoli rRNA inh: -1.5; Ecoli rRNA inh OD600: 0.0; Ecoli rRNA inh RFP: 1.9

Results for N#C[C@@H]1[C@@H](c2ccc(C3=CCCCC3)cc2)[C@@H](CO)N1C(=O)Cc1ccncc1 ?
MLL AF4-AF9 inh: 9.1; FGF22 binding: inactive; Ecoli rRNA inh: 1.7; Ecoli rRNA inh OD600: -1.2; Ecoli rRNA inh RFP: -1.5

What do the screens show for `COc1ccccc1-c1cnc2c(c1)C(=O)N([C@@H](C)CO)C[C@@H](C)[C@H](CN(C)Cc1cccc(F)c1)O2`?
MLL AF4-AF9 inh: 9.3; FGF22 binding: inactive; Ecoli rRNA inh: 3.7; Ecoli rRNA inh OD600: 2.5; Ecoli rRNA inh RFP: 2.3

How did O=C(N[C@H]1CC[C@H](CCNS(=O)(=O)c2cccc(Cl)c2)O[C@@H]1CO)c1ccc(F)cc1 do in these assays?
MLL AF4-AF9 inh: -0.4; FGF22 binding: inactive; Ecoli rRNA inh: -3.3; Ecoli rRNA inh OD600: 1.7; Ecoli rRNA inh RFP: -0.5

Results for Cc1noc(C)c1S(=O)(=O)NC(=O)C1(C)CCN1C(=O)c1ccc(C2CCCCC2)cc1 (centres undefined) ?
MLL AF4-AF9 inh: -3.6; FGF22 binding: inactive; Ecoli rRNA inh: 1.4; Ecoli rRNA inh OD600: 4.3; Ecoli rRNA inh RFP: 3.5

Not all compounds are listed (hit frequency here may not be typical).
